Screening data deposited in PubChem BioAssay by National Center for Advancing Translational Sciences (NCATS).
HPGD block – qHTS Assay for Inhibitors of HPGD (15-Hydroxyprostaglandin Dehydrogenase). Potency, µM, for the others: top-dose activity change, negative = inhibition, actives largely listed as inhibitors. AID 894, 2007. 15-hydroxyprostaglandin dehydrogenase [NAD(+)] (Homo sapiens), P15428. 4.3% of 150,000 active. purified HPGD, NADH fluorescence kinetic, PGE2 substrate; active = well fitted inhibition curve with a large enough effect (not every such curve was filed as active); inconclusive = small, poorly fitted or top-dose-only effect, or another doubt; inactive = no such curve, though single readings can be large or run the other way;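 further: top concentration of the series not given in the record; plate controls included wells without enzyme; inactives centre near -10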
Target sequence (P15428 whole entry, looked up): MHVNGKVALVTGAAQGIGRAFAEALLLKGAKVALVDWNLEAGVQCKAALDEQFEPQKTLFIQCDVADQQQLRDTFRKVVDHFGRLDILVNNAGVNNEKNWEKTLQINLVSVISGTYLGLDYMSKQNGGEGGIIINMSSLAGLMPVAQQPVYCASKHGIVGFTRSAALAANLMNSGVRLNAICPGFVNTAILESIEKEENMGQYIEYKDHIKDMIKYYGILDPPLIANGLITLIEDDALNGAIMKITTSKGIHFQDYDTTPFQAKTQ
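20 nM HPGD preincubated 15 min at room temperature with compound in 50 mM Tris-HCl pH 8, 0.01% Tween 20. Started with 1 mM NAD+ and 30 uM prostaglandin E2; NADH fluorescence (360/450 nm) read 5 times over 30-s intervals, last minus first.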
An asterisk follows results filed as active; u = inconclusive; [ ] = remark or other dose. On the % scale 0 is the no-effect control and ±100 the full control effect; potency means the concentration at half of the fitted maximal effect. These rows are one share of the data; count on the stated rates, not on these rows.

HPGD block	mol
-14%	COc1ccccc1N1CCN(C(=O)c2c(-c3ccccc3)noc2C)CC1
-5%	Oc1ccc(-c2cn3c(n2)SCC3)cc1
-19%	OCCCN=c1cc(-c2ccccc2)oc2ccc(Cl)cc12
-3%	O=C(CSc1ncccn1)NC(=O)NCc1ccccc1
-14%	CC(C)OC(=O)CSc1nnc(-c2cnccn2)n1C
-4%	CC12C=C(/C=C/c3ccc(Br)cc3)C(C)(C1)[C@H](c1ccc(Br)cc1)CC2=O (stereo partly drawn)
16µM*	CN1CCN(C(=S)c2ccc(N(C)C)cc2)CC1
3%	COc1ccc(S(=O)(=O)NCCc2ccccc2)cc1
13µM*	Cc1ccc(C=C2C(=O)c3ccccc3C2=O)s1
-9%	CC(=O)Nc1cc(C(C)(C)C)c(O)c(C(C)(C)C)c1
-21%	O=C(COC(=O)c1cccc(NS(=O)(=O)/C=C/c2ccccc2)c1)Nc1ccccc1OC(F)F
-13%	Cc1nn(C)c(=O)n1-c1ccc(Oc2ccccc2)cc1
-26%	CCOC(=O)c1cc(-c2ccccc2)sc1NC(=O)C(C)N1C(=O)NC(C)(c2ccc(Cl)cc2)C1=O (stereo not drawn)
-7%	COc1cccc(-c2nnc(SCc3ccc(C#N)cc3)n2Cc2ccco2)c1
-4%	O=S(=O)(c1ccccc1)N1CCC2(CCN(Cc3ccccc3)CC2)CC1
-20%	O=c1[nH]c2cc3c(cc2cc1CN(Cc1nnnn1CC1CCCO1)C1CCCCC1)OCO3 (stereo not drawn)
u	COc1ccc(-c2cc(C(=O)N3CCN(c4ncccn4)CC3)c3ccccc3n2)c(OC)c1
-28%	COC(=O)C1=C(N)c2c(F)cccc2C1(C#N)c1ccccc1 (stereo not drawn)
u	O=C(Nc1nc2c(s1)CCCC2)c1ccc2ncsc2c1
-7%	Cn1c(SCc2cc(=O)[nH]c3ccccc23)nnc1-c1ccco1
-24%	COc1ccc(/C=N/n2cc(-c3ccc(OC)cc3)nc2N)cc1
-17%	Cc1cccc(COCC(Cc2ccccc2)N2CCN(C(=O)c3ccc(C(F)(F)F)cc3)CCC2=O)c1 (stereo not drawn)
-7%	CC1(C)CC2(CC(C)(C)NC(=O)N2)NC(=O)N1
-6%	Clc1cc(Cl)c(Cl)cc1Cl
-7%	Cc1ccc(S(=O)(=O)n2c3ccc(Cl)cc3c3nc(C)sc32)cc1
-27%	O=C1C2=C(Nc3cc([N+](=O)[O-])ccc3N2)O[C@@H]1c1c[nH]c2ccc(COc3ccccc3)cc12
-26%	CC1(C)Cc2c(c(N3CCOCC3)nc3sc4c(NCc5ccco5)nnnc4c23)CS1
-7%	Cc1c(Cl)c([N+](=O)[O-])nn1CC(=O)N1CCCC1
-24%	CCC1SC2=NC(C)=C(C(=O)OC)C(c3ccc(C)cc3)N2C1=O (stereo not drawn)
-7%	O=C(NC(=S)Nc1ccc(S(=O)(=O)Nc2nccs2)cc1)c1ccc(F)c(F)c1
-13%	O=C(COC(=O)/C=C/c1ccccc1)Nc1cccc(Oc2ccccc2)c1
-27%	N#Cc1c(NC(=O)CCn2cnc3ccccc3c2=O)oc(-c2ccccc2)c1-c1ccccc1
-2%	O=C(c1ccccc1[N+](=O)[O-])N1CCCN(C(=O)c2ccccc2[N+](=O)[O-])CC1
-16%	O=C(NCc1ccco1)c1cnc2n(c1=O)CCS2
-15%	Cc1cccc(OCCN2C(=O)C(=O)c3cccc(C)c32)c1
-9%	Cc1oc2ccc(OC(=O)N3CCOCC3)cc2c1C(=O)OC(C)C
u	CCCCCCCCCCCCCCCC(=O)N[C@@H](COP(=O)(O)O)C(=O)O
-9%	CCOc1ccc(C(=O)NC2CCN(C(=S)NCc3ccco3)CC2)cc1
u	COC(=O)CC1C(=O)NCCN1C(=O)CSc1nnc(Nc2ccc(OC)cc2)s1 (stereo not drawn)
-5%	O=C(Nc1ccccc1)Nc1ccccc1NS(=O)(=O)c1cccs1
u	COCCn1c(N)c(C#N)c2nc3ccccc3nc21
0%	CN1CCN(CC(O)COCCOc2ccc(Br)cc2)CC1 (stereo not drawn)
-9%	CC(C)(C)NCCCCOc1ccc(F)cc1
-17%	Cc1noc(C)c1S(=O)(=O)Nc1ccc(C(=O)NC2CCCCC2C)cc1 (stereo not drawn)
-1%	COc1ccc(OC)c(NC(=O)Cn2cc(C#N)c3ccccc32)c1
-17%	COc1cc(C2C(C(C)=O)=C(O)C(=O)N2CCc2c[nH]c3ccccc23)ccc1O (stereo not drawn)
u	Cc1cc(C)n(/N=C/c2c[nH]c3ccccc23)c(=O)c1
-3%	CCCS(=O)(=O)N1CCCC(C(=O)NCc2ccc(C)cc2)C1 (stereo not drawn)

3 compounds from above, ordered by their value in HPGD block, highest first.
HPGD block	mol
-1%	COc1ccc(OC)c(NC(=O)Cn2cc(C#N)c3ccccc32)c1
-9%	CC(C)(C)NCCCCOc1ccc(F)cc1
-17%	Cc1noc(C)c1S(=O)(=O)Nc1ccc(C(=O)NC2CCCCC2C)cc1 (stereo not drawn)

The results go on:
HPGD block	mol
-7%	COc1cccc(NC(=O)CSc2nnnn2C(C)C)c1
-4%	COc1ccccc1C1C2C(=O)N(c3ccccc3)C(=O)C2ON1c1ccccc1 (stereo not drawn)
-13%	O=C(Nc1ccnc(-c2cccnc2)n1)c1ccc(Cl)cc1
-4%	CCOC(=O)c1cnc2cc(C)nn2c1-c1ccccc1
u	C=CCn1c(SCC(=O)NC2CCCCC2)nnc1-c1ccc(OC)cc1
-3%	CC1CCCC(C)N1S(=O)(=O)c1ccc(S(=O)(=O)NCc2ccccc2)cc1 (stereo not drawn)
-20%	CN(C)CCNc1ncnc2c1sc1nc(N3CCOCC3)c3c(c12)CC(C)(C)SC3
-3%	Fc1ccc(CSc2nncn2NCc2ccc3c(c2)OCO3)cc1
u	CCN(CC)CCCN(Cc1cc2cc3c(cc2[nH]c1=O)OCO3)C(=O)Nc1ccccc1OC
-4%	CC(C)N(CCc1ccncc1)C(=O)Nc1ccc(F)cc1
-14%	O=C(Nc1ccccc1F)c1ccc(CSc2ccccc2)o1
-6%	CNc1ccc(C2(O)C(=O)c3ccccc3C2=O)cc1

Reformatted: entries from further up
Molecule: O=C(Nc1ccccc1F)c1ccc(CSc2ccccc2)o1
  HPGD block: -14%

Molecule: CN(C)CCNc1ncnc2c1sc1nc(N3CCOCC3)c3c(c12)CC(C)(C)SC3
  HPGD block: -20%

Molecule: CCN(CC)CCCN(Cc1cc2cc3c(cc2[nH]c1=O)OCO3)C(=O)Nc1ccccc1OC
  HPGD block: u

Molecule: CCOC(=O)c1cnc2cc(C)nn2c1-c1ccccc1
  HPGD block: -4%

(next part)
HPGD block	mol
2%	CN(C)S(=O)(=O)c1ccc2c(c1)nc1n2CCC1
-7%	Cc1ccc(S(=O)(=O)N2CCN(C(=O)N3CCOCC3)C2C)cc1 (stereo not drawn)
-10%	COCCCNc1ncnc2ccc(C)cc12
-14%	COn1c(SCc2ccc(Cl)cc2)nc2ccccc2c1=O
-9%	CC(C)=CCCC(C)C1CC[C@@]2(C)C3=C(CC[C@@]12C)C1(C)CCC(O)C(C)(C)C1CC3 (stereo partly drawn)
-11%	CO[C@@H](CCO)C[C@H]1O[C@H](C(=O)OC(C)C)CC[C@@H]1C
u	Fc1ccc(-c2ccc(-c3nn4c(-c5ccco5)nnc4s3)o2)cc1
-11%	CCOC(=O)c1c(NC(C)=O)sc2c(O)c(CN3CCN(CC)CC3)ccc12
-5%	Cc1cc(C)n2nc(C(=O)OCC(=O)Nc3ccc4c(c3)OC(F)(F)O4)nc2n1
-10%	COc1ccc(C(=O)NC(=S)NCc2cccnc2)cc1[N+](=O)[O-]
u	COc1ccc(C(C)=O)cc1CSc1nc2ccccc2o1
-1%	Cc1ccc(NC(=O)CCNS(=O)(=O)c2cccc3nonc23)cc1
-14%	Cc1ccc(NC(=O)/C=C/c2cccs2)c([N+](=O)[O-])c1
16µM*	CCCn1nnnc1NC(=O)CSc1ccc(Cl)cc1
-11%	OC1(c2ccc(OC(F)F)cc2)CSC(=Nc2cccnc2)N1C1CC1 (stereo not drawn)
92%[activator]	CC(Oc1ccc(Cl)cc1Cl)c1nc(-c2ccc(NC(=O)c3ccccn3)cc2)no1 (stereo not drawn)
-15%	Cc1ccc2cc(/C=N/Nc3nc4ccccc4[nH]3)c(Cl)nc2c1
-12%	COC(=O)CCCc1nc2ccccc2s1
-21%	Cc1cccc2c1N1C(=O)c3c(C(=O)O)cccc3C1CC2C (stereo not drawn)
-5%	Cc1[nH]nc2c1C(c1ccc(-c3ccc(Cl)cc3)o1)C(C#N)=C(N)O2 (stereo not drawn)
u	C[C@@H]1Nc2ccc(Cl)cc2S(=O)(=O)N1
u	COc1ccccc1Nc1nc(-c2sc(NC(=O)CC(C)C)nc2C)cs1
u	C=CCn1c(-c2cccs2)nc2ccccc21
-12%	COc1ccc(-n2c(Cc3cccn3C)nnc2SCC(=O)Nc2cc(Cl)ccc2OC)cc1

HPGD block: hit marks shown above
HPGD block	mol
16µM*	CN1CCN(C(=S)c2ccc(N(C)C)cc2)CC1
13µM*	Cc1ccc(C=C2C(=O)c3ccccc3C2=O)s1
16µM*	CCCn1nnnc1NC(=O)CSc1ccc(Cl)cc1

Going on with the list.
HPGD block	mol
-5%	COCCn1c(=S)[nH]c2cc(C(=O)NCCc3ccc(OC)c(OC)c3)ccc2c1=O
-15%	O=C(COC(=O)c1cc(=O)[nH]c2ccccc12)Nc1nc(-c2cccc(Br)c2)cs1
-16%	COc1ccc2[nH]c(C(O)(Cc3cccnc3)Cc3cccnc3)cc2c1
-10%	COc1ccccc1C(=O)NCCNC(=O)c1ccco1
-5%	Cn1c(=O)c(C(=O)CN2CCOCC2)c(N)n(Cc2ccccc2)c1=O
u	CN(C)c1cccc(C(=O)OCC(=O)Nc2ccccc2-c2ccccc2)c1
-17%	CCn1c(SCC(=O)c2[nH]c(C)c(C(C)=O)c2C)nnc1-c1ccncc1
-11%	O=C(c1ccc(Br)o1)N(Cc1ccccc1)c1ccccn1
u	O=C(O)c1cccc(COc2ccccc2Cl)c1
-11%	CCOC(=O)c1ccccc1NC(=O)c1cccnc1
-6%	COc1ccc(N/C(C)=C2/C(=O)C(=O)N(CCO)C2c2ccc([N+](=O)[O-])cc2)cc1 (stereo not drawn)
-11%	CC1=C(C)/C(=N\OS(=O)(=O)c2ccccc2)C=CC1=O
1%	N#Cc1ccccc1Sc1ccccc1N
-19%	CC(C(=O)OCC(=O)Nc1ccc2c(c1)OCO2)N1C(=O)c2ccccc2C1=O (stereo not drawn)
-11%	CC(C)=C1C(=O)C(c2ccccc2)=C2CN3C(=O)N(CCc4ccccc4)C(=O)[C@]3(Cc3ccc(C(F)(F)F)cc3)[C@H]21
-19%	CCOC(=O)c1[nH]c2c(c1C)C(=O)CC(c1ccco1)C2 (stereo not drawn)
-26%	O=C(Nc1ccc2c(c1)OCO2)c1sc2cc(Cl)ccc2c1Cl
-16%	COc1cc(C2NC(=O)NC(C)=C2C(=O)NCc2ccccc2)c(Cl)cc1O (stereo not drawn)
u	CCOC(=O)c1oc2ccccc2c1NC(=O)c1cccc(OC)c1
5µM*	c1ccc(CCc2nn3c(-c4ccncc4)nnc3s2)cc1
-2%	CCN1CCN(C(=O)c2ccc3c(=O)n(Cc4ccccc4OC)c(=S)[nH]c3c2)CC1
-27%	CCOc1ccc(C(=O)Nc2cccc(NC(=O)c3cccs3)c2)cc1[N+](=O)[O-]
-7%	CCC(CC)c1nnc(NC(=O)c2ccc(N3CCCC3=O)cc2)s1
-5%	C[N+](C)(C)CCOP(=O)([O-])OP(=O)(O)OCC1OC(n2ccc(N)nc2=O)C(O)C1O (stereo not drawn)
11µM*	CCOC(=O)c1c(-c2ccc(C)o2)csc1NC(=O)CSc1nnnn1-c1ccccc1
-7%	COC(=O)[C@@H]1C[C@H]1[C@@H](NS(=O)(=O)c1ccc(-c2ccccc2)cc1)c1ccccc1
-12%	O=c1cc(-c2ccco2)oc2c1ccc1ccccc12
-29%	CCOC(=O)c1ccc(N/C=C/C(=O)c2ccc(OC)c(OC)c2)cc1
-3%	CCOC(=O)N1CCN(C(=O)CN(c2cccc(C)c2)S(=O)(=O)c2ccc(C)cc2)CC1
-2%	CCc1cc2c(SCC(=O)c3ccc(C)cc3)ncnc2s1
-4%	COc1ccc(NC(=O)C(NC(=O)c2ccccc2)C(C)C)cc1 (stereo not drawn)
22µM*	CC1CCN(c2c(NCC3CCC(C(=O)Nc4ccccn4)CC3)c(=O)c2=O)CC1 (stereo not drawn)
-7%	O=C(OC[C@@H](O)CO)c1ccccc1Nc1ccnc2cc(Cl)ccc12
-7%	CCOCCCNC(=O)CCSc1ccc(C)cc1
-6%	O=C(O)Cc1ccc(NC(=O)c2cccs2)cc1
-8%	CCNC(=O)NC(=O)CSc1nc2ccccc2n1CC(C)C
-7%	CC(O)C(O)C(O)C(O)C1NCCS1 (stereo not drawn)
-12%	COc1ccc(C)c(S(=O)(=O)Nc2ccc(OCC(=O)O)cc2)c1

Three entries out of the list, arranged by molecular weight, high to low.
HPGD block	mol
-8%	CCNC(=O)NC(=O)CSc1nc2ccccc2n1CC(C)C
-2%	CCc1cc2c(SCC(=O)c3ccc(C)cc3)ncnc2s1
-12%	O=c1cc(-c2ccco2)oc2c1ccc1ccccc12
